PrP UTR inh: inhibition of PrP 5' UTR reporter expression. cell-based PrP 5' UTR mRNA reporter, plate reader. inhibition, % (test concentration not listed). AID 488862, 2010. hit rate 0.35% among 340,000;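 active = every replicate at 50% or more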;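 also: 0 = median of the neutral control wells; tested in H4 reporter cells; numbers are from one replicate; inactives centre near -14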
ugtP null kill: growth inhibition of ugtP-null S. aureus, primary screen, RN4220 ugtP deletion, OD600 | 16 h; some inactives read as strong as hits | growth inhibition, % (no concentration beside the values) | hit rate 0.54% among 330,000 | AID 1259309, 2017;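 active = z-score under -3 and OD600 up to 0.15 on both plates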;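 also: plate controls were untreated wells for no effect and antibiotic for full effect; wells of about 80 µL received 100 nL stock; the first replicate is given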
BJeLR viability: MLPCN primary cell-based screen for lethality selective to Ras in HRASV12 cells | BJeLR (HRASV12) viability, CellTiter-Glo ATP luminescence, 48 h; reference of the scale not given here | inhibition, % (test concentration not listed) | hit rate 0.17% among 300,000 | AID 1554, 2009;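 active = replicate mean above 50%; inconclusive = above 50% but judged a plate artefact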;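 also: 50 nL library stock added to about 25 µL; numbers are from one replicate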
Mtb hypoxia rep: PubChem AID 1159583; hit rate 0.1% among 300,000; M. tuberculosis hypoxia-regulated fluorescent reporter, fluorescence; fluorescence inhibition, % (concentration not given with the values);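 active = 35 to 45% if threefold the growth effect, above 45% if 1.5-fold the growth effect; inactive = the rest, general growth blockers included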;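 also: wells of about 50 µL received 100 nL stock; 0% = vehicle wells and 100% = reference inhibitor wells; whole bacteria with a GFP reporter of the hypoxia response; strong numbers were not always called active; many hits fall short of the cut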
Autofluor counter: compound fluorescence in toxin protease inhibitor counterscreen; compound autofluorescence counterscreen, microsphere flow cytometry; hits give high values; fluorescence intensity (no concentration beside the values); hit rate 3.1% among 360,000; AID 624483;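 active = at least 3 SD above the mean of all compounds, about 16000 in these data; inconclusive = too few beads counted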;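 also: 100 nL of 1 mM stock went into each well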
RN4220 kill: growth inhibition of S. aureus RN4220, primary screen, OD600. 16 h. inhibition, % (test concentration not listed). hit rate 0.33% among 330,000. AID 1259311, 2017;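 active = z-score of -3 or lower and OD600 up to 0.18 on both plates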;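 also: plate controls were untreated cells for no effect and reference antibiotic for full effect; stock transfer was 100 nL into about 80 µL; one replicate is shown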
Mtb hypoxia rep growth: also measured in Mtb hypoxia rep; calls as there; growth inhibition, %; measured here: M. tuberculosis growth (absorbance);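 0% = vehicle and 100% = reference antibiotic; read after six days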
The depositor's hits bear a star; ? = inconclusive; / = no result given.

SMILES	PrP UTR inh	ugtP null kill	BJeLR viability	Mtb hypoxia rep	Mtb hypoxia rep growth	Autofluor counter	RN4220 kill
COc1ccc(CNC(=O)N[C@@H](Cc2c[nH]c3ccccc23)C(=O)O)cc1	/	16.9	11.4	-4.5	7.0	2964	-0.7
CC(C)N(C(=O)NC(=O)Nc1ccccn1)S(C)(=O)=O	-10.5	2.8	-0.3	6.6	-0.5	2456	6.6
CCOC(=O)N1CCN(Cc2nc(-c3ccc(OC)cc3)no2)CC1	-2.3	3.9	1.1	0.5	2.8	10976	1.4
CCCCOc1ccc(CON(C(C)=O)C(C)=O)cc1Cl	-4.9	6.0	7.0	14.0	12.6	4474	1.9
COc1ccccc1NC(=O)C1CCN(c2ncccn2)CC1	-40.6	1.6	3.7	-1.6	1.9	21787*	1.6
Cc1ccc(C)c(S(=O)(=O)Nc2ccc(O)cc2)c1	-16.3	2.5	8.2	-1.3	-1.1	9525	1.7
NC(=O)C1CC(=O)N(c2ccc(OCc3ccc(Cl)cc3Cl)cc2)C1 (stereo unspecified)	-37.5	8.5	4.0	5.5	1.8	2741	-6.4
COc1cc(OC)cc(C(=O)Nc2cccnc2)c1	-19.1	12.3	-1.4	-0.8	2.7	2715	10.4
Cc1ccc(-n2ncc(C#N)c2/N=C/N2CCN(C)CC2)cc1	-6.9	/	-2.3	/	/	3976	/
Cc1ccccc1C(=O)NC(=S)Nc1ccccc1N1CCCC1	-13.2	85.2*	0.3	-5.9	6.9	2641	-0.5
COc1ccc(CCN(C(=O)Cn2nnc3ccccc32)C(C(=O)NCC2CCCO2)c2ccncc2)cc1OC (stereo unspecified)	-14.1	6.2	4.4	14.5	2.0	4003	2.0
CCC(=O)N1CCc2cc(S(=O)(=O)NCCC(=O)NC3CCCc4ccccc43)ccc21 (stereo unspecified)	-21.1	9.1	-1.0	2.8	1.3	6113	3.5
COc1ccc(NC(=S)N2CCN(C)CC2)cc1	/	1.3	-8.4	10.7	7.0	6015	4.0
COc1ccccc1CN(C)C(=O)COC(=O)c1cc(C)oc1C	-22.2	3.4	/	4.0	0.0	5061	1.3
Cc1nc2ccsc2c(=O)n1-c1ccccc1Cl	-4.6	-1.0	-3.9	14.5	7.5	4177	6.4
Cc1nc(S/C(=C\c2ccc(-c3ccc(C(=O)O)c(Cl)c3)o2)C(=O)O)n[nH]1	-14.4	10.3	1.0	0.6	-0.7	3678	4.9
Cc1cc(C)cc(N(CC(=O)NCCSc2ccccn2)S(=O)(=O)c2ccccc2)c1	-12.2	-4.0	-3.9	16.5	9.9	2905	-7.0
CCn1nnnc1NC(=O)c1cc(OC)c(OC)c(OC)c1	-16.6	/	-2.8	/	/	4011	/
S=c1[nH]nc(Cc2c[nH]c3ccccc23)o1	-24.8	7.7	-4.0	-6.1	-1.1	6609	9.0
CC(=O)c1c(C)[nH]c(C(=O)Nc2cc(C)cc(C)c2)c1C	-9.7	-10.2	-6.3	9.6	4.4	3781	8.8
Cc1cc(-c2ccc(C(C)C)c(S(=O)(=O)NCc3ccco3)c2)on1	-20.9	-1.7	1.6	8.4	0.1	5739	8.9
COc1ccccc1NC(=S)N1C2CCC1CC(NC(=O)NC13CC4CC(CC(C4)C1)C3)C2 (stereo unspecified)	-13.6	0.5	-8.0	-7.2	5.1	9081	3.1
CC1=CCC2C(=O)N(c3cccc(C(=O)Nc4ccccc4Cl)c3)C(=O)C2C1 (stereo unspecified)	-14.0	0.8	3.6	3.7	5.9	5438	1.2
COc1ccc(CN2CCCC(CO)(Cc3ccc(F)cc3F)C2)cc1 (stereo unspecified)	-13.1	1.6	12.0	-8.1	11.9	3940	2.3
Cc1ccc(S(=O)(=O)N2CCN(C)CC2)cc1	-36.3	2.9	0.8	5.2	-0.5	4011	1.8
COc1ccccc1C(=O)Oc1ccc(C(C)(C)C)cc1	3.3	26.6	1.4	/	/	4782	2.1
CC1C(=O)Nc2ccc(S(=O)(=O)N3CCc4ccccc4C3)cc2NC1=O (stereo unspecified)	-10.1	-0.1	-9.0	3.1	4.7	3830	5.2
COc1ccc(Cc2nnc(NCCO)[nH]c2=O)cc1OC	/	15.7	2.2	-3.4	0.8	3785	0.7
CCOc1ccccc1NC(=O)c1ccccc1NS(C)(=O)=O	-20.9	-3.5	4.3	0.8	2.7	5917	5.1
Cc1ccccc1C1c2[nH]c3ccccc3c2CCN1Cc1cccn1-c1ncccn1 (stereo unspecified)	8.3	3.4	-12.1	-0.7	-2.6	5144	-2.7

In another format: two of the compounds above
SMILES,PrP UTR inh,ugtP null kill,BJeLR viability,Mtb hypoxia rep,Mtb hypoxia rep growth,Autofluor counter,RN4220 kill
COc1ccccc1NC(=O)C1CCN(c2ncccn2)CC1,-40.6,1.6,3.7,-1.6,1.9,21787*,1.6
S=c1[nH]nc(Cc2c[nH]c3ccccc23)o1,-24.8,7.7,-4.0,-6.1,-1.1,6609,9.0

(more compounds)
SMILES	PrP UTR inh	ugtP null kill	BJeLR viability	Mtb hypoxia rep	Mtb hypoxia rep growth	Autofluor counter	RN4220 kill
CC(=O)Nc1ccc(S(=O)(=O)CCC(=O)O)cc1	-26.5	5.9	13.8	7.7	5.1	7712	4.1
CCOc1ccc(Cl)cc1S(=O)(=O)n1cnc2ccccc21	-22.8	-6.6	13.8	/	/	2993	-1.9
Cc1n[nH]c(C)c1CCc1nc2c3ccccc3nc(SCC(=O)Nc3ccccc3F)n2n1	-22.1	1.7	2.0	9.8	4.0	4186	0.1
COc1ccc(-c2nc(-c3ccccn3)nc(N3CCN(C)CC3)c2C#N)cc1	-22.3	0.0	-0.2	3.0	8.9	4519	2.2
CCn1c2ccccc2c2nnc(SCC(=O)c3c(N)n(C)c(=O)n(C)c3=O)nc21	-21.7	7.4	-2.5	11.7	13.8	4315	7.0
O=C(Nc1cc(C(F)(F)F)ccc1N1CCOCC1)C1=NN(c2ccccc2)C(=O)CC1	-3.1	-6.1	-0.5	2.4	0.9	5102	0.3
O=C(Nc1ccc(N2CCN(C(=O)C3CC3)CC2)cc1)c1cccs1	-16.9	-0.2	8.2	-6.7	14.7	2524	4.6
CC(C)(C)c1nc2ccc([N+](=O)[O-])cc2[nH]1	-14.2	2.6	-2.0	6.5	10.7	4215	0.3
CC(C)(C)NC(=O)CN(Cc1cccs1)C(=O)CNS(=O)(=O)c1ccc(F)cc1	5.0	9.4	-1.2	0.6	3.4	3144	2.8
Cc1ccc(CNC(=O)[C@@H]2CCC(=O)N2Cc2ccco2)cc1	10.4	1.7	-0.7	3.7	-1.7	3457	-1.9
COc1cc(C(=O)NCCOc2ccccc2)c(Br)c(OC)c1OC	-8.9	4.4	4.7	/	/	4555	2.4
CN(Cc1cc(-c2ccccc2)on1)C(=O)c1cc(COc2c(F)cccc2F)on1	-23.2	5.6	12.1	12.1	-0.3	3925	2.7
CCOC(=O)CSc1nc2cc(C(F)(F)F)cnc2n1C	-23.4	12.4	7.4	8.6	10.4	?	4.8
Cc1ccc(OC(=O)C(F)(F)F)c2c1NCCC2	-26.7	6.0	-2.5	-0.4	6.5	9917	6.1
CC1CCCCN1C(=O)Cn1cc(C=O)c2ccccc21 (stereo unspecified)	-12.0	6.5	-5.5	1.5	4.8	2450	7.2
O=C(Nc1ccc(Br)cn1)c1cccc2ccccc12	-11.7	3.6	-5.9	14.1	7.0	3936	0.9
COc1ccc(NC(=O)C2CCCN2C(=O)NCc2ccccc2)cc1OC (stereo unspecified)	-16.1	3.4	-8.1	1.0	-1.2	5057	4.9
Cc1ccc(S(=O)(=O)N2CCOC23CCN(C(=O)c2ccccc2Br)CC3)cc1	-12.6	4.0	-0.2	3.2	1.0	5404	4.6
O=C(CN1CCSC1=O)N1CCN(S(=O)(=O)c2ccccc2)CC1	-26.7	12.7	/	1.9	-3.1	3147	7.1
O=C(O)c1sccc1SCc1ccc(Cl)cc1Cl	-17.5	-8.6	-15.8	4.9	-8.3	3788	18.1
Cc1ccc(C)c(NC(=O)CN(C)C(=O)c2ccc(-n3cncn3)c([N+](=O)[O-])c2)c1	-14.7	3.9	5.0	10.8	12.3	5419	3.0
Cc1ccc2c(c1)nnn2C1CCN(S(=O)(=O)c2ccc(C(=O)N(C)C)cc2)CC1	-11.0	-3.3	-6.3	8.6	6.9	4395	4.1
COc1ccc(OC)c(NC(=O)Nc2ccc3c(c2)OCO3)c1	-26.3	15.4	-2.2	-4.7	-8.3	/	-1.0
COCc1cc(=O)n2c(-c3ccc(C)cc3)n[nH]c2n1	-6.2	3.4	-3.6	/	/	4295	3.3
CCn1c(N2CCC(Cc3ccccc3)CC2)nc2c1c(=O)[nH]c(=O)n2C	-10.5	-1.1	-1.7	/	/	4261	2.9
O=C(Nc1sc2c(c1C(=O)c1ccc(Cl)cc1)CCCC2)c1cccnc1	-15.9	-3.8	-2.2	-1.5	10.4	?	3.3
CC(C)(C)OC(=O)NCCCCCc1cn(CC(=O)NCCCCCCCCCCC(=O)N2CCN(C(=O)OC(C)(C)C)CC2)nn1	-5.9	6.7	/	-3.8	-2.0	2945	7.9
O=C(c1ccc(Cl)s1)N1CCN(c2ncccn2)CC1	-15.3	6.2	0.2	/	/	4384	1.0
C=CCN=C(C)C1=C(O)CCC1=O	-17.7	-3.7	-11.8	6.2	2.4	2567	-10.0
COc1ccc(OCCOC(=O)c2ccc(F)c(S(=O)(=O)N3CCOCC3)c2)cc1	-2.8	4.9	/	12.6	4.8	/	0.3
CCOC(=O)c1c(C)[nH]c(O)c1C=Nc1ccc(Cl)cc1	11.9	-11.6	-2.1	8.1	8.9	4627	14.3
CCOP(=O)(c1ccccc1)c1nc(-c2ccccc2C)oc1NCc1ccccc1 (stereo unspecified)	-14.3	7.2	-1.4	14.2	11.6	4545	2.0
Cc1nc2ccc(Cl)cc2nc(C)/c1=N\O	3.0	/	3.2	/	/	2982	/
O=C(CCc1c[nH]c2ccccc12)NCCOc1ccccc1	-9.1	-2.5	-11.1	2.3	-2.3	4455	4.0
CC(=O)CCC(=O)c1ccc2ccccc2c1	-42.0	-4.0	5.3	6.2	9.3	2685	4.6
CC1CCN(C(=O)c2cc(-c3ccco3)on2)CC1	-50.3	7.0	-2.2	/	/	5911	1.7
Cc1ccc(OCC(=O)NCCCNC(=O)c2ccccn2)cc1	-11.1	0.4	4.8	0.7	-12.3	5304	1.1
O=C(c1ccc(C(F)(F)F)cc1)N1CCCCC1	-16.2	1.9	-19.5	/	/	4313	1.0
COc1ccc(N2C(=O)CCC(C(=O)N(C)CCc3ccccn3)C2c2ccc(OC)c(OC)c2)cc1 (stereo unspecified)	-17.9	1.5	1.9	-0.3	3.4	4324	4.1
O=C(C(=NNc1ccccc1)Sc1nnnn1-c1ccccc1)c1ccccc1	/	4.8	/	-1.0	-0.8	/	3.4
N#Cc1ccc(C2N=C(c3ccccc3)NO2)cc1 (stereo unspecified)	-83.7	-8.6	0.6	15.1	10.0	5302	4.8
CCCCn1c(SCc2nc(N)nc(N3CCCCC3)n2)nc2c1c(=O)n(C)c(=O)n2C	-9.1	5.8	-1.8	9.6	-0.3	2520	7.3
CN(CCOc1ccc(Cl)cc1)C(=O)CN1C(=O)NC2(CCCC2)C1=O	-7.9	2.3	-10.9	-4.1	1.0	6525	-0.2
CCOc1ccccc1OCCCNCc1ccco1	-80.2	11.5	-4.3	6.6	7.0	2266	4.9
CC1CCN(C(=O)c2ccc(NS(=O)(=O)c3cccc4cccnc34)cc2)CC1	-13.1	0.3	2.5	11.9	5.2	3206	4.3
CC(=O)c1ccc(N2CCN(C(=O)c3cc(S(=O)(=O)N4CCOCC4)ccc3C)CC2)cc1	-1.8	-0.5	/	-12.1	-9.2	?	-0.5
O=C(c1cc(-c2ccncc2)nc2ccccc12)N1CCN(c2ccccn2)CC1	-23.2	4.0	-5.6	7.3	-0.5	17502*	2.2

Record cards (already shown).
CCn1c(N2CCC(Cc3ccccc3)CC2)nc2c1c(=O)[nH]c(=O)n2C is listed as PrP UTR inh = -10.5; ugtP null kill = -1.1; BJeLR viability = -1.7; Mtb hypoxia rep = /; Mtb hypoxia rep growth = /; Autofluor counter = 4261; RN4220 kill = 2.9
O=C(CN1CCSC1=O)N1CCN(S(=O)(=O)c2ccccc2)CC1 is listed as PrP UTR inh = -26.7; ugtP null kill = 12.7; BJeLR viability = /; Mtb hypoxia rep = 1.9; Mtb hypoxia rep growth = -3.1; Autofluor counter = 3147; RN4220 kill = 7.1
